# HCMV NEC inh – inhibitors of HCMV UL50-UL53 interaction, biochemical, HTRF | hit rate 0.15% among 190,000 | inhibition, % (concentration not given with the values) | normalized percent inhibition | HCMV UL50-UL53 nuclear egress complex (human cytomegalovirus);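 active means both replicates at 50% or more, plus weaker picks with an unusually low signal ratio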;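 further: stock transfer was 100 nL into about 20 µL; 0% = negative control wells and 100% = wells with untagged competitor protein; inactives centre near -12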
# Sa growth inh – S. aureus growth inhibition at 42 and 30 °C, primary screen, LtaS inhibitor project, RN4220, two temperatures; OD600, 20 h, 42 °C; hits give low values; hit rate 0.53% among 170,000; AID 720641, 2013; relative growth, % (no concentration beside the values);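 active means growth at 42 °C up to 50% and 20 or more points under that at 30 °C, or under 10% at both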;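 further: 300 nL library stock went into each well; scaled to the means of positive and negative controls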
# GIV Gai3 FP – inhibitors of GIV peptide binding to Galpha-i3, primary screen, biochemical, fluorescence polarization, FITC-GIV GBA peptide, rat Galphai3 | Guanine nucleotide-binding protein G(i) subunit alpha-3 (Rattus norvegicus), P08753 | percent of control (FP), % (test concentration not listed) | 90 min; hits give low values; scaled: aluminum fluoride 0%, vehicle 100% | hit rate 0.42% among 210,000;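 active means replicate mean at 85% of control or lower, very high polarization wells dropped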;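 further: wells of about 15 µL received 100 nL stock; the first replicate is given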
# Target sequence (P08753 whole entry, looked up): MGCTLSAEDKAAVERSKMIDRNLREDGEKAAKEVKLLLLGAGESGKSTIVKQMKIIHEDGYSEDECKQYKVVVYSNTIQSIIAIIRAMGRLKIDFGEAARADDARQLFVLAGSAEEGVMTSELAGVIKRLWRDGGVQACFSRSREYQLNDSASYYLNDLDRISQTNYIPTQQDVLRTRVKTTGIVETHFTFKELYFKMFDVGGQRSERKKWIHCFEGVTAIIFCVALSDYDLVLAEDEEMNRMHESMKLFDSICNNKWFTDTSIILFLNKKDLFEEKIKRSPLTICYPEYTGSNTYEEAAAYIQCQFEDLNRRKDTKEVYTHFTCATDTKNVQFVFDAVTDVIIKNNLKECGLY
# Sa growth inh second temp – further read-out of Sa growth inh, marked with its call; relative growth, %; measured here: growth at 30 °C;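 optical density after 20 h as mean of two plates; 100% = untreated growth and lower means inhibition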
# * = called active by the depositor; nt = no result given; & = joins results of further samples.
SMILES,HCMV NEC inh,Sa growth inh,Sa growth inh second temp,GIV Gai3 FP
Clc1cccc(-c2nnc(-c3ccno3)o2)c1,-6.8,113.0,89.5,99.5
Cc1[nH]nc(-c2ccc(S(=O)(=O)NCCCN3CCCC3)s2)c1C,-23.1,104.0,94.9,105.3
Cc1cc(SC#N)ccc1N,-20.0,56.0,81.5,nt
COc1ccc(N2CCN(c3ccccn3)CC2)cc1,-27.3,71.2,95.8,nt
CC(=O)Nc1ccc(S(=O)(=O)Nc2ccc(-c3cn4c(C)csc4n3)cc2)cc1,nt,78.9,88.3,99.3
CC(C)CCNC(=O)c1ccc(CS(=O)(=O)c2ccc(Br)cc2)o1,nt,88.0,92.3,98.4
CCN(C(=O)CCc1nnc2ccc(NCc3ccccc3)nn12)c1ccccc1,-5.7,91.7,85.6,100.5
Cc1ccc(NC(=O)CCc2nc3cccnc3n2-c2ccccc2)cc1Cl,-35.1,108.2,89.6,107.8
CC1CN(C2CCCCC2)c2nc3c(c(=O)n(CCCO)c(=O)n3C)n2C1 (stereo not given),-27.9,nt,nt,95.6
Cc1ccc(Cl)cc1N1NC(=O)C(C)(C)C1=O,-9.4,nt,nt,96.0
CC1CCCCC1NC(=O)CN1CCC(NC(=O)c2cccc(F)c2)CC1 (stereo not given),-4.3,111.7,74.2,102.8
Cc1ccc(-c2c(C)noc2C)cc1S(=O)(=O)N1CC=C(c2ccccc2)CC1,-16.4,nt,nt,93.3
Cc1ccc(OCCNC(=O)c2ccc(C(C)(C)C)cc2)cc1,4.5,95.5,87.9,nt
CCc1nc(NCCC(C)C)c2onc(-c3ccc(C)cc3)c2n1,-29.8,nt,nt,103.1
O=C(Nn1c(-c2ccccc2F)nc2ccccc2c1=O)c1cc2cc(Br)ccc2oc1=O,-20.9,nt,nt,103.2
CC(=O)N1C(=O)/C(=C2\SC(=Nc3ccc(Br)cc3)NC2=O)c2ccccc21,-27.9,nt,nt,105.1
CCOC(=O)c1[nH]c2c(OC)cc(OC)cc2c1CCN1C(=O)c2ccccc2C1=O,-6.8,nt,nt,99.8
Cc1[nH]nc2c1C(c1ccccc1OC(C)C)CC(=O)N2 (stereo not given),-18.6,nt,nt,96.1
O=C(CCn1cccc1)NCCN1CCCCCC1,-0.9,105.8,104.8,100.6
CC(C)(C)c1ccc(C(=O)NC2(C(F)(F)F)NC(=O)N(CCc3ccccc3)C2=O)cc1 (stereo not given),-34.3,100.8,97.7,99.2
COc1ccc(C(=O)n2c(=O)oc3ccc(C(C)(C)C)cc32)cc1,-22.0,nt,nt,107.7
O=c1ccc(-c2n[nH]c(=S)n2-c2ccc(F)c(Cl)c2)n[nH]1,-12.5,102.0,105.3,98.5
COc1ccc(CCNc2ccc(-c3nc(-c4ccccc4)no3)nn2)cc1OC,-39.1,nt,nt,95.0
CCOC(=O)c1ccc(N=C2SC(C(=O)Nc3ccccc3Cl)CC(=O)N2C)cc1 (stereo not given),-16.8,nt,nt,101.6
Cn1c(C(C#N)C(=O)c2ccccc2Br)nc2ccccc21 (stereo not given),-12.9,106.8,101.8,103.1
SMILES,HCMV NEC inh,Sa growth inh,Sa growth inh second temp,GIV Gai3 FP
Cc1cc(NS(=O)(=O)c2ccc3c(c2)OCCO3)no1,-11.2,99.2,94.9,106.8
CCOCc1c(C(=O)OCCOc2ccccc2)oc2ccccc12,-20.1,125.3,91.2,nt
NS(=O)(=O)c1ccc(NC(=O)CCC(=O)Nc2ccc(S(N)(=O)=O)cc2)cc1,-5.3,93.3,87.8,102.6
NC(=O)c1c(NC(=O)c2ccccc2)sc2c1CCCC2,-9.4,108.9,86.3,nt
O=C1c2ccccc2-c2nn(C(=O)c3ccc(Br)s3)c3cccc1c23,-16.0,100.8,92.0,nt
Clc1ccc(-c2nc(N3CCC4(CC3)OCCO4)c3ccccc3n2)cc1,-16.5,111.3,92.7,108.8
Cc1ccc(S(C)(=O)=N/C=C2\C(=O)c3sccc3N(C)S2(=O)=O)cc1 (stereo not given),-65.6,88.2,89.4,94.9
Cc1c(Cl)cccc1NS(=O)(=O)c1cccc2nsnc12,nt,171.6,80.8,96.6
CCOc1ccc(CCNC(=O)CCc2c(C)nc3c(-c4ccccc4)c(C)nn3c2C)cc1OCC,-37.9,104.5,88.5,105.8
CCOc1ccccc1CNC(=O)CCCn1c(=O)c2cccn2c2ccc(F)cc21,-27.8,102.0,66.0,99.6
COC(Cn1c(-c2cccc(S(=O)(=O)N(C)C)c2)n[nH]c1=S)OC,-12.4,83.2,86.1,nt
CC1CN(C(=O)COC(=O)c2cccc(Cl)c2)CC(C)O1 (stereo not given),-13.3,73.4,79.0,nt
COC(=O)Cn1cnc2scc(-c3ccc(OC)c(OC)c3)c2c1=O,-19.6,86.6,76.9,105.1
CCOC(=O)C1CCCN(Cc2ccc(Cl)cc2)C1 (stereo not given),-0.5,108.0,96.7,94.0
Cc1cc(C(=O)Nc2ccc(S(N)(=O)=O)cc2)no1,5.0,99.6,96.7,105.6
O=C(O)CCC(=O)N1N=C(c2ccc(Br)cc2)CC1c1ccccc1 (stereo not given),-60.8,nt,nt,102.9
O=C(Cc1ccc(Cl)cc1)Nc1nnc2n1CCS2,nt,96.5,80.7,98.6
O=C(CSc1ncccn1)NC1CC2CCC1C2 (stereo not given),-5.5,95.5,71.1,100.3
COc1ccc(-c2nnc3s/c(=C\c4ccco4)c(=O)n23)cc1OC,nt,115.3,89.4,99.7
CCC(C)C(=O)Nc1ccc(Cl)cc1 (stereo not given),-17.9,93.5,86.7,nt
CCc1cccc(CC)c1NC(=O)Cn1nnc2sc(-c3ccccc3)cc2c1=O,-23.3,102.0,82.8,95.8
COc1ccccc1N1CCN(C(=O)CSc2nnc(-c3ccncc3)o2)CC1,-11.0,nt,nt,100.3
Cc1ccc2c(CNCc3ccc(C)o3)c(C(=O)O)n(Cc3ccccc3C)c2c1,nt,98.8,92.8,104.0
Cc1cccc(C)c1NC(=O)CCS(=O)(=O)c1cccc2nonc12,-37.9,114.3,96.3,104.1
Cc1cccc2c1cnn2C(=O)CCC(=O)NC1CCCCC1,-11.9,nt,nt,105.5

# Of the compounds above, 2 have an aryl thioether with sulfur outside any ring.
SMILES,HCMV NEC inh,Sa growth inh,Sa growth inh second temp,GIV Gai3 FP
O=C(CSc1ncccn1)NC1CC2CCC1C2 (stereo not given),-5.5,95.5,71.1,100.3
COc1ccccc1N1CCN(C(=O)CSc2nnc(-c3ccncc3)o2)CC1,-11.0,nt,nt,100.3

# (next part)
SMILES,HCMV NEC inh,Sa growth inh,Sa growth inh second temp,GIV Gai3 FP
CC1C(=O)CCC1(C(=O)O)c1ccccc1 (stereo not given),5.8,94.7,95.1,96.5
CCNC(=O)CC1C(=O)N(c2ccc(OC)cc2)C(=O)N1CCOC (stereo not given),-17.4,99.3,89.9,103.4
CCc1nnc(SCC(=O)Nc2ccc3c(c2)OCO3)n1CC1CCCO1 (stereo not given),-2.9,105.4,69.6,104.1
O=C(NCCc1c[nH]c2ccccc12)c1noc2c1CCc1sccc1-2,-35.4,nt,nt,104.4
COCC(C)NC(=O)c1cc(-c2ccco2)on1 (stereo not given),-17.8,90.3,81.7,96.6
Cc1ccc(C=Nc2ccc3ccccc3c2)o1,-7.2,94.8,76.6,nt
COc1ccccc1C(=O)NCC(c1ccc2c(c1)CCCN2C)N1CCCC1 (stereo not given),-17.2,nt,nt,105.0
O=C1C=C(NCCN2CCOCC2)CC(c2ccccc2)C1 (stereo not given),-6.8,95.2,93.3,109.4
O=C(O)COc1cc(OCC(=O)O)c2c(-c3ccccc3)cc(=O)oc2c1,-83.8,78.6,81.8,nt
CCOc1ccc(NC(=S)C(C#N)=C2N(C)c3ccccc3N2C)cc1,-15.7,84.1,92.0,nt
CN1CCN(c2ccc(NS(=O)(=O)c3ccc(F)cc3)c(C(=O)O)c2)CC1,-13.5,nt,nt,100.2
COc1ccc(N2CCN(C(=O)Cc3csc(NC(=O)Nc4ccccc4)n3)CC2)cc1,-9.9,nt,nt,105.1
O=c1c(F)cn(C2CCCO2)c(=O)n1Cc1ccc(Cl)cc1 (stereo not given),nt,98.5,89.1,95.9
CC1CCCC(NC(=O)CNC(=S)N(Cc2ccccc2)Cc2cccs2)C1C (stereo not given),nt,81.3,84.0,100.0
CC(C)CN(CC(C)C)S(=O)(=O)c1csc(C(N)=O)c1,-23.8,82.0,83.2,101.1
Cc1nn(Cc2noc(-c3ccc(Br)cc3)n2)c(C)c1S(=O)(=O)N1CCCC1,-11.3,nt,nt,107.4
CCN1CCCC1CNC(=O)CCCn1nc(C)n2c(cc3sccc32)c1=O (stereo not given),-4.7&-29.2,107.3,88.2,106.5&98.9
NS(=O)(=O)C#Cc1ccccc1,26.7&4.0&7.6&5.3,85.8,38.9,98.1&99.7
COC(=O)c1ccc(CN2CCCCC2)cc1,-9.8,101.8,84.9,102.1
O=C(OCC1CC1)c1cnc(N2CCCCC2)nc1C(F)(F)F,0.0,100.1,97.0,104.2
CCN(CC)CCNC(=O)CSc1nc2ccccc2n(CC)c1=O,-24.1,nt,nt,107.9
Cc1cc(N(C)CC(=O)Nc2ccc(OC(F)(F)F)cc2)n2ncnc2n1,0.5,94.8,92.1,nt
O=C(Nc1ccncc1)c1ccc(Oc2cc(Cl)cc(Cl)c2)o1,2.0,4.9*,9.1*,103.6
CCSc1nnc2c(n1)OC(c1cccc(Br)c1)N(C(C)=O)c1ccccc1-2 (stereo not given),-51.1,nt,nt,99.9
Cc1ccc(NC(=O)NCC2CCN(Cc3cccc(Cl)c3)CC2)c(Cl)c1,-17.8,nt,nt,105.6

# Reprinted from the entries so far for reference:
SMILES,HCMV NEC inh,Sa growth inh,Sa growth inh second temp,GIV Gai3 FP
COc1ccc(N2CCN(C(=O)Cc3csc(NC(=O)Nc4ccccc4)n3)CC2)cc1,-9.9,nt,nt,105.1
O=c1c(F)cn(C2CCCO2)c(=O)n1Cc1ccc(Cl)cc1 (stereo not given),nt,98.5,89.1,95.9
CC1CCCC(NC(=O)CNC(=S)N(Cc2ccccc2)Cc2cccs2)C1C (stereo not given),nt,81.3,84.0,100.0
CC(C)CN(CC(C)C)S(=O)(=O)c1csc(C(N)=O)c1,-23.8,82.0,83.2,101.1
Cc1nn(Cc2noc(-c3ccc(Br)cc3)n2)c(C)c1S(=O)(=O)N1CCCC1,-11.3,nt,nt,107.4
CCN1CCCC1CNC(=O)CCCn1nc(C)n2c(cc3sccc32)c1=O (stereo not given),-4.7&-29.2,107.3,88.2,106.5&98.9

# The listing continues:
SMILES,HCMV NEC inh,Sa growth inh,Sa growth inh second temp,GIV Gai3 FP
COc1ccc(OC)c(CNC(=O)c2ccc3c(c2)ncn3C2CCCC2)c1,0.2,93.1,75.3,107.7
CON(C)S(=O)(=O)c1cc(C(=O)OCc2nc(-c3ccc(Cl)cc3)no2)ccc1Cl,-3.1,114.2,100.6,nt
O=C(Sc1ncccc1C(F)(F)F)c1cccc(C(F)(F)F)c1,3.8,69.2,31.2,98.0
CC(OC(=O)c1cccc(O)c1)C(=O)Nc1cccc(Cl)c1 (stereo not given),-9.1,99.6,78.2,nt
COC(=O)c1ccc(N=c2sc(C(=O)OC)cc(=O)n2C)cc1,-15.7,99.5,92.9,97.3
O=S(=O)(NCCOc1cccc2cccnc12)c1ccc(F)cc1,-3.2,109.7,98.2,105.1
COc1ccc(C2Nc3ccccc3C(=O)N2c2ccc(Cl)cc2)cc1COc1ccccn1 (stereo not given),-11.2,nt,nt,101.8
Cc1ccccc1C(=O)Nc1ccc(C(=O)OCc2cc(=O)n3nc(C(C)C)sc3n2)cc1,nt,98.5,89.0,106.1
CCCC(=O)N1CCc2c([nH]c3ccc(OC)cc23)C1c1ccc(F)cc1 (stereo not given),9.8,nt,nt,99.9
CN(c1ccccc1)S(=O)(=O)c1nnc(NC(=O)c2ccco2)s1,-4.6,118.0,67.8,100.7
Nc1n[nH]c2c1C1(CCCC1)Cc1ccccc1-2,10.4,13.2,0.5,104.0
COc1ccc(OCCC(=O)NC2=NCCS2)cc1,-7.4,90.8,92.4,104.2
CN1CCN(c2nc(N3CCN(CCO)CC3)nc3ccccc23)CC1,-13.7,90.8,84.9,nt
CN(C=C1C(=O)NC(=O)NC1=O)Cc1ccc(Cl)c(Cl)c1,14.9,94.4,92.8,nt
CCOc1ccc2nc(SCC(=O)Nc3ccccc3)[nH]c2c1,nt,79.1,75.4,100.0
O=C(/C=C1/NCC2c3ccccc3CCN2C1=O)c1ccc(F)cc1 (stereo not given),-34.5,88.5,82.1,nt
N#Cc1ccc(/C=N/NC(=O)Cn2ccc(C(F)(F)F)n2)cc1,-15.6,88.2,89.8,nt
CC1(C)C(=O)N(CC(=O)Nc2ccc3c(c2)OCO3)c2ccc(S(=O)(=O)N3CCCC3)cc21,-19.8,nt,nt,107.2
Cc1n[nH]c2nc(C(=O)O)c(CCO)c(=O)n12,-41.5,nt,nt,106.6
Cc1ccc(-n2c(=O)c3cccnc3n2CC(=O)Nc2ccccc2Cl)cc1,-7.6,nt,nt,103.9
O=C(O)/C=C/c1c(F)c(F)c(N2CCOCC2)c(F)c1F,-57.3,102.3,89.9,93.1
Clc1ccc(-c2csc(N3CCN(c4ccccc4)CC3)n2)cc1,-1.9,101.1,98.2,103.6
Cn1c(-c2ccccc2)c[nH]c1=S,-9.4,81.6,84.8,nt
COC(=O)c1sccc1S(=O)(=O)Nc1ccc(N2CCCCC2)cc1,-25.3,90.0,82.0,92.8
Fc1ccccc1Nc1ncnc2sc(-c3ccccc3)cc12,-2.2,98.4,88.6,nt

# Bioassay records: PubChem BioAssay, ICCB-Longwood Screening Facility, Harvard Medical School
